AF4-AF9 inh = inhibitors of AF4 peptide binding to AF9, primary screen, biochemical, AlphaScreen, biotin-AF4 peptide, FLAG-AF9, single point. Protein AF-9 (Homo sapiens), P42568. inhibition, % at 10 µM. hit rate 0.47% among 350,000;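 active = every replicate reaching a set inhibition limit, whatever the replicate mean, cut at about 25% in these data; inconclusive = mean inhibition reaches that limit but some replicates miss it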;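 also: 0% = plate neutral control median and 100% = total signal loss; the record names both 10 and 1 µM as test concentration; the first replicate is given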
Target sequence (P42568 whole entry, looked up): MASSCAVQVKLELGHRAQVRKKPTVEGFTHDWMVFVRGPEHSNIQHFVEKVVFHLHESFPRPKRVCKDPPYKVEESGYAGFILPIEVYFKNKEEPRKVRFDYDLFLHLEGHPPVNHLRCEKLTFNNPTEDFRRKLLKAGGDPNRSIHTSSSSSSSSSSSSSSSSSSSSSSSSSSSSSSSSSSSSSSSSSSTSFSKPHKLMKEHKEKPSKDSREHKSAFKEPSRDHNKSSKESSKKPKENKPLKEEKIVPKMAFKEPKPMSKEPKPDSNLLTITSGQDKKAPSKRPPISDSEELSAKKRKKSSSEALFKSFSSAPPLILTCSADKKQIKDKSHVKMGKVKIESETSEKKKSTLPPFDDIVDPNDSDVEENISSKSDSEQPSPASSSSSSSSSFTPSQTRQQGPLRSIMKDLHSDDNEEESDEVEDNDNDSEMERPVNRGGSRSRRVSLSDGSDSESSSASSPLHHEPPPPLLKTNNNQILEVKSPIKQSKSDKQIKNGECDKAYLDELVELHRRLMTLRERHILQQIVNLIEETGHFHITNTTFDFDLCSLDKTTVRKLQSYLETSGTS
Vif A3G = inhibitors of Vif binding to APOBEC3G peptide, primary screen, biochemical, TR-FRET, GST-Vif 1-94, biotin-A3G peptide, dose response retest (AID 1117319). Virion infectivity factor (Human immunodeficiency virus type 1 group M subtype B (isolate …. TR-FRET GST-Vif / biotin-A3G peptide binding; higher % means a stronger effect; test concentration not given here; strong numbers were not always called active. one-dose inhibition, %; IC50 in µM for titrated hits. hit rate 0.57% among 260,000;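 active = above the screen mean plus three standard deviations and confirmed in dose response; inconclusive = results disagree or hit not tested in dose response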;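 also: Vif residues 1-94 fused to GST binding biotinylated APOBEC3G peptide 110-148; 0% = full assay without inhibitor and 100% = GST in place of GST-Vif; retest series ran down from 100 µM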
FGF22 binding = binders of human FGF22 protein, primary screen, FGF22 synaptogenesis inhibitor project, biophysical, thermal shift, single point | recombinant FGF22 thermal shift, SYPRO orange fluorescence; percent of sucrose octasulfate shift, DMSO zero | Fibroblast growth factor 22 (Homo sapiens), Q9HCT0 | calls only at 9.99 µM | hit rate 1.5% among 340,000;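 active = melting point raised past a set limit in the mean and every replicate; inconclusive = no clear call; three in four hits are not shown here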
Target sequence (Q9HCT0 whole entry, looked up): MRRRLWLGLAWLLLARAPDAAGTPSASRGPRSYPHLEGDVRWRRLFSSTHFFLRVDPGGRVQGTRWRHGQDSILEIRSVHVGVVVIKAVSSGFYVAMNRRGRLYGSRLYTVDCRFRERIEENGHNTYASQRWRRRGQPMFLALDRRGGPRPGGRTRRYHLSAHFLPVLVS
rRNA inh HTS = reduced GFP signal of wild-type E. coli, primary screen, bacterial rRNA inhibitor project, GFP/RFP fluorescence, OD600, single point. E. coli WT GFP vs humanized-ribosome RFP mutants, 24 h; active compounds read low; DMSO median 0, no signal -100. GFP signal change (wild-type ribosome), % (no concentration beside the values). hit rate 1.6% among 350,000. AID 720706, 2013;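 active = significant combined selectivity score with lowered wild-type GFP, culture density cut under 30%, mutant RFP and density less affected; inactive = any of these conditions unmet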; also: one replicate is shown; some compounds called inactive have numbers as strong as hits
ALR H2O2 inh = inhibitors of human ALR sulfhydryl oxidase, primary screen, biochemical, H2O2 detection, HRP-luminol luminescence, single point; AID 485317, 2010; FAD-linked sulfhydryl oxidase ALR (Homo sapiens), P55789; inhibition, % (test concentration not listed); purified ALR, DTT oxidation; hit rate 3.8% among 290,000;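 active = mean and each replicate at 75% or more; inconclusive = only one of the two met; inactive = neither met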;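 also: stock transfer was 7.5 nL into about 7.5 µL; 0% = neutral wells and 100% = wells with inactivated enzyme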
Target sequence (P55789 whole entry, looked up): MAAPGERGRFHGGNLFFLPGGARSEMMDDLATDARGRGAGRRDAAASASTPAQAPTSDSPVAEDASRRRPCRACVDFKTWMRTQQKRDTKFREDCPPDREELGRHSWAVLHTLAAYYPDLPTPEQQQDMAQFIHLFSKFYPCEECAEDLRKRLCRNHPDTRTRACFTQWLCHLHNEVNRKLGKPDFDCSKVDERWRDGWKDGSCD
HNF4A DNA FP = change in binding of human HNF4A to DNA, primary screen, biochemical, fluorescence polarization, FITC-DNA. Hepatocyte nuclear factor 4-alpha (Homo sapiens), P41235. 1 h. activity change, % at 10 µM. hit rate 0.3% among 360,000. AID 1224865, 2016; in the data active = activity change above about 30%, passing the limit was not always enough;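 also: controls were the assay level and a saturating level of protein; the project sought stronger binding though the title names inhibitors; some compounds called inactive have numbers as strong as hits; positive values seem to mean higher polarization but the record does not say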
E coli growth = E. coli growth inhibition, primary screen, OD600; Escherichia coli growth, 23 h; active compounds read low; OD600 absorbance (concentration not given with the values); hit rate 0.21% among 330,000; AID 1053175, 2014;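 active = OD600 absorbance below the run mean of sample wells minus 3.6 SD, in any replicate, cut at about 0.56 in these data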;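 also: stock transfer was 300 nL into about 60 µL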
rRNA inh HTS OD600 = recorded beside rRNA inh HTS, whose call it bears; OD600 change, %; measured here: OD600 growth;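 optical density of the mix in the first replicate; 0 = DMSO median and -100 = no signal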
rRNA inh HTS RFP = further read-out of rRNA inh HTS, marked with its call; RFP signal change, %; measured here: RFP humanized mutant strains;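 first replicate; 0 = DMSO median and -100 = no signal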
An asterisk follows results filed as active; i = inactive; u = inconclusive; x = no result given.

mol	AF4-AF9 inh	Vif A3G	FGF22 binding	rRNA inh HTS	rRNA inh HTS OD600	rRNA inh HTS RFP	ALR H2O2 inh	HNF4A DNA FP	E coli growth
O=C(COc1coc(CN2CCc3ccccc3C2)cc1=O)Nc1cccc([N+](=O)[O-])c1	-22.1	5.6%	i	9.3	4.2	-1.0	2.3	3.7	0.635
O=C(COc1ccccc1Cl)Nc1ccc(N2CCN(C(=O)c3ccccc3)CC2)cc1	1.9	x	i	-6.3	-2.1	4.4	-40.3	-0.9	0.782
CN(CC(=O)Nc1ccc(N2CCOCC2)cc1)CC(=O)Nc1ccc(N2CCOCC2)cc1	1.8	u	i	3.2	3.8	-3.0	42.4	-2.3	0.706
Cc1occc1C(=O)Nc1cccc(Cl)c1Cl	-9.2	x	i	-6.2	7.3	-4.7	3.2	-2.5	0.671
Cc1ccccc1OC(C)C(=O)Nc1ccc(S(=O)(=O)N2CCCC2)cc1 (configuration not stated)	-0.5	5.2%	i	-1.6	-28.9	2.4	-9.5	3.1	0.694
O=C(CN1CCOCC1)Nc1ccc(Cl)cc1	-0.1	0.0%	i	19.4	10.4	-0.8	-0.2	-1.7	0.669
C[C@@H]1CCCCO[C@@H](CN(C)Cc2ccc(Cl)c(Cl)c2)[C@@H](C)CN([C@H](C)CO)C(=O)c2cc(NC(=O)NC3CCCCC3)ccc2O1	1.2	x	i	4.3	4.6	-1.2	x	x	x
CCC1(CC)NC(=O)N(CC(=O)Nc2cccc3ccccc23)C1=O	-0.2	x	i	5.9	2.5	2.8	-0.7	-1.9	0.647
O=c1c2ccccc2sc2ccc(C#CC3(O)CCCCC3)cc12	-14.3	x	i	-15.2	-18.6	26.6	-12.9	0.5	0.639
Cc1cc(C(=O)Nc2ccccc2N2CCOCC2)c(C)o1	4.3	x	i	2.3	6.6	-0.8	3.7	5.4	0.711
C[C@H](CO)N1C[C@H](C)[C@H](CN(C)C(=O)CC2CC2)Oc2ncc(C#CC(C)(C)O)cc2C1=O	-6.0	x	i	1.6	-0.1	0.3	x	x	x
COC(=O)C1=C(C)NC(=O)NC1c1ccc(-c2ccccc2Cl)o1 (configuration not stated)	-1.4	-4.2%	i	10.9	10.7	5.7	3.1	3.7	0.748
Cc1csc(NC(=O)C(CC(C)C)NS(=O)(=O)c2ccc3c(c2)oc(=O)n3C)n1 (configuration not stated)	4.6	26.5%	i	-4.8	-7.2	-7.3	0.2	-4.4	0.692
Cc1ccc(C(=O)n2c(-c3ccccc3)cnc2SCC(=O)Nc2ccccc2)cc1	0.2	-1.3%	i	-30.1	-30.9	-6.3	x	0.3	0.73
O=C(N[C@@H]1C=C[C@@H](CC(=O)N2CCOCC2)O[C@@H]1CO)c1cccc(F)c1	-1.9	x	i	1.5	-0.1	0.5	x	x	x
Cc1ccc(S(=O)(=O)N(C)C[C@H]2Oc3ccc(NC(=O)CCN4CCOCC4)cc3CC(=O)N([C@H](C)CO)C[C@@H]2C)cc1	2.6	x	i	1.7	0.8	-1.3	x	x	x
COc1ccc2c(c1)C=C(C(=O)OCc1cccnc1)CO2	2.4	16.7%	x	-32.6	-31.4	-3.3	2.6	0.6	0.682
COc1ccc(S(=O)(=O)Nc2ccc3c(c2)CC(=O)N([C@H](C)CO)C[C@H](C)[C@H](CN(C)C(=O)Nc2ccccc2)O3)cc1	2.1	x	i	1.4	3.2	0.0	x	x	x
COC(=O)Oc1nsnc1N1CCOCC1	-6.3	-3.7%	i	14.8	11.5	0.1	22.1	-1.3	0.696
O=C(NCc1cccnc1)C(=O)NCC1OCCN1S(=O)(=O)c1ccc(Cl)cc1 (configuration not stated)	-7.0	13.4%	i	6.4	0.0	-5.5	7.6	-2.8	0.748
O=C(Nc1ccn(CCCNCCc2ccccn2)c(=O)n1)OCc1ccccc1	4.5	5.0%	i	0.2	3.2	0.9	x	-2.5	x
CO[C@@H]1CN(C)C(=O)c2cc(NC(=O)C3CCOCC3)ccc2OC[C@@H](C)N(CC2CCOCC2)C[C@H]1C	-3.4	x	i	0.7	8.4	-1.3	x	x	x
N#CCC1c2ccccc2CCN1C(=O)Nc1cccc(C(F)(F)F)c1 (configuration not stated)	x	-3.9%	x	x	x	x	-5.1	3.1	0.643
NC(N)=NC(N)=Nc1ccccc1	1.5	-4.3%	i	10.9	22.3	1.1	-8.6	-1.7	0.666
COc1ccc(CN(C)C[C@H]2Oc3ccc(NC(=O)CCCCCC(=O)Nc4ccccc4N)cc3C(=O)N([C@H](C)CO)C[C@H]2C)cc1	1.6	x	i	-3.1	4.3	-0.2	x	x	x
COc1ccc(N(C)C(=O)c2cnc(N3CCN(c4ncccn4)CC3)c3ccccc23)cc1	x	5.8%	x	x	x	x	2.5	0.3	0.68
COc1ccc(C(C)(C)C)cc1NC(=O)COC(=O)CSCc1c(C)noc1C	0.5	7.6%	i	-2.1	-5.3	-3.0	x	7.8	0.599
COCCNC(=O)C[C@H]1CC[C@@H](NC(=O)NC2CCCCC2)[C@@H](CO)O1	-0.9	x	i	0.3	-1.0	-0.5	x	x	x
C=CCNS(=O)(=O)c1cc2c3c(c1)CCN3C(=O)CC2	-1.6	1.9%	i	4.0	5.2	-3.4	-2.7	0.0	0.694
O=C(CSc1ncccn1)NCc1cccc(Cl)c1	0.1	-6.2%	i	14.6	8.6	1.5	-1.3	0.8	0.699
C=CCOc1ccccc1CNCc1ccc(F)cc1	-3.5	1.2%	i	4.9	-0.1	-6.1	-3.1	3.4	0.644
C[C@@H]1CCCCO[C@@H](CN(C)C(=O)Nc2ccc3c(c2)OCO3)[C@H](C)CN([C@H](C)CO)C(=O)c2cc(NC(=O)C3CCCCC3)ccc2O1	2.6	x	i	-0.5	0.0	-0.3	x	x	x
C[C@H](O)C#Cc1cnc2c(c1)C(=O)N([C@H](C)CO)C[C@H](C)[C@@H](CN(C)C(=O)c1ccc(F)cc1)O2	-1.7	x	i	4.3	7.0	-1.3	x	x	x
Cc1cc(NC(=O)CSCC(=O)OC(C)C(=O)c2cc(C)c(C)cc2C)no1 (configuration not stated)	0.1	0.1%	i	-3.7	-0.5	0.4	11.8	-2.1	0.697
CC(C)=C[C@H]1C[C@H](C)[C@H]2CC[C@H](C)c3c(O[C@@H]4O[C@@H](C)[C@@H](O)[C@@H](O)[C@@H]4O)c(O)c(C)c1c32	18.6	x	i	x	x	x	x	3.4	x
Cc1ccc(S(=O)(=O)NC(=O)C2(C)CCN2C(=O)C2(c3ccc(Cl)cc3)CCC2)cc1 (configuration not stated)	0.4	x	i	-23.7	-22.1	-20.0	x	-2.3	x
O=[N+]([O-])c1ccc(/C=N/Nc2nc(N3CCCC3)nc(N3CCCC3)n2)o1	x	54.2µM*	x	x	x	x	-38.8	-2.8	x
N=C1CCCN1c1ccccc1O	5.8	-5.8%	x	4.3	3.2	-9.5	6.3	-0.6	0.648
O=C(c1ccc(Br)c([N+](=O)[O-])c1)N1CCN(Cc2ccccc2)CC1	4.7	x	i	-3.1	-1.3	-0.2	-1.7	2.4	0.68
CCC(c1nnnn1Cc1ccco1)N1CCN(C(=O)c2ccco2)CC1 (configuration not stated)	x	-4.4%	x	x	x	x	x	-2.1	0.686
COc1ccc2cnn(CCOc3ccccc3)c(=O)c2c1OC	x	5.0%	x	x	x	x	0.9	3.2	0.775
CCC(CC)NCc1ccc(OC)cc1OC	x	-4.5%	x	x	x	x	-11.2	4.4	0.71
NC(=O)CC[C@@H]1NC(=O)[C@@H]2CCCN2C(=O)c2cc([N+](=O)[O-])cc(F)c2NCCC[C@@H](C(N)=O)NC1=O	5.6	u	i	7.1	17.7	20.5	-8.4	0.5	x
CC(NS(=O)(=O)c1ccc(Cl)c(Cl)c1)C(=O)OCC(=O)Nc1ccc2c(c1)OCO2 (configuration not stated)	-3.5	5.4%	i	-19.4	11.9	12.7	-7.3	5.0	0.694
O=C(CNSc1ccc([N+](=O)[O-])cc1[N+](=O)[O-])OCc1ccccc1	5.5	x	i	-6.9	7.2	0.2	x	x	x
COc1ccc(NS(=O)(=O)c2cc(C(=O)N3CCC3)ccc2C)cc1	7.1	-7.2%	i	0.8	5.7	-0.9	0.0	9.3	0.669
Cc1ccc(CN2CC(N3CCN(CC4CC4)CC3)CS2(=O)=O)cc1 (configuration not stated)	-3.7	x	i	2.0	4.4	-0.9	x	-2.1	x
COc1ccc(NC(=O)c2cc3n(n2)C(C(F)(F)F)CC(c2ccc(OC)cc2)N3)cc1 (configuration not stated)	x	2.7%	x	x	x	x	0.8	1.8	0.759
CCC1(c2ccc(OC)cc2)NC(=O)N(CC(=O)c2ccc3c(c2)OCCO3)C1=O (configuration not stated)	-0.1	-3.1%	i	1.0	-29.6	-0.4	x	-1.5	0.613
O=C(Cc1ccncc1)NCC[C@@H]1CC[C@@H](NC(=O)C2CCC2)[C@H](CO)O1	3.2	x	i	1.3	-2.0	-3.1	x	x	x
O=C(NNC(=O)c1ccco1)c1ccc(NS(=O)(=O)c2cccs2)cc1	0.2	-8.1%	i	12.3	5.8	-1.4	2.5	1.4	0.634
CN(C[C@H]1N[C@@H](CO)[C@H]1c1ccc(-c2cccnc2)cc1)C(=O)CC1CC1	0.1	x	i	2.2	10.2	-1.6	x	x	x
COC(=O)[C@@]1(C(C)C)N=C(c2cc(OC)c(OC)c(OC)c2)[C@]2(O1)C(=O)N(Cc1ccc(OC)cc1)c1ccc(Br)cc12	-4.7	x	i	19.0	5.1	1.6	x	2.4	x
O=C(COc1ccc(F)cc1Br)N1CCc2ccccc21	x	9.3%	x	x	x	x	1.5	0.6	0.73
O=C1NC2(CCC3(CC2)OCCO3)NN1c1ccccc1	0.7	-2.5%	i	16.4	20.5	2.2	-9.8	4.4	0.69
CN1NC(=O)CC1c1ccccc1 (configuration not stated)	-2.4	-1.6%	i	8.5	9.2	-3.3	x	-0.6	0.694

Assay outcomes: PubChem BioAssay, several laboratories

A portion of the library (hit frequency here may not be typical).
